Screening results: PubChem BioAssay, several laboratories
BJeLR lethal = MLPCN primary cell-based screen for lethality selective to Ras in HRASV12 cells | inhibition, % (no concentration beside the values) | 0.17% of 300,000 active | BJeLR (HRASV12) viability, CellTiter-Glo ATP luminescence, 48 h; reference of the scale not given here;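 active = replicate mean above 50%; inconclusive = above 50% but judged a plate artefact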;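 note: 50 nL library stock added to about 25 µL; numbers are from one replicate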
PrP UTR inh = inhibition of PrP 5' UTR reporter expression; cell-based PrP 5' UTR mRNA reporter, plate reader; inhibition, % (test concentration not listed); 0.35% of 340,000 active; AID 488862, 2010;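 active = every replicate at 50% or more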;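 note: 0 = median of the neutral control wells; tested in H4 reporter cells; numbers are from one replicate; inactives centre near -14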
Mtb hypoxia inh = PubChem AID 1159583. 0.1% of 300,000 active. fluorescence inhibition, % (no concentration beside the values). M. tuberculosis hypoxia-regulated fluorescent reporter, fluorescence;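 active = 35 to 45% if threefold the growth effect, above 45% if 1.5-fold the growth effect; inactive = the rest, general growth blockers included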;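 note: wells of about 50 µL received 100 nL stock; 0% = vehicle wells and 100% = reference inhibitor wells; whole bacteria with a GFP reporter of the hypoxia response; strong numbers were not always called active; many hits fall short of the cut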
RN4220 kill = growth inhibition of S. aureus RN4220, primary screen, OD600; 16 h; inhibition, % (concentration not given with the values); 0.33% of 330,000 active; AID 1259311, 2017;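 active = z-score of -3 or lower and OD600 up to 0.18 on both plates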;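 note: plate controls were untreated cells for no effect and reference antibiotic for full effect; stock transfer was 100 nL into about 80 µL; one replicate is shown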
ugtP null kill = growth inhibition of ugtP-null S. aureus, primary screen, RN4220 ugtP deletion, OD600; 16 h; some inactives read as strong as hits; growth inhibition, % (concentration not given with the values); 0.54% of 330,000 active;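 active = z-score under -3 and OD600 up to 0.15 on both plates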;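 note: plate controls were untreated wells for no effect and antibiotic for full effect; wells of about 80 µL received 100 nL stock; the first replicate is given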
Bead autofluor = counter-screen for toxin protease inhibitors: compound fluorescence; 3.1% of 360,000 active; compound autofluorescence counterscreen, microsphere flow cytometry; stronger effect = higher value; AID 624483; fluorescence intensity (test concentration not listed);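 active = at least 3 SD above the mean of all compounds, about 16000 in these data; inconclusive = too few beads counted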;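 note: 100 nL of 1 mM stock went into each well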
Mtb hypoxia inh growth = second read-out of Mtb hypoxia inh, no call of its own (marks repeat the call); growth inhibition, %; measured here: M. tuberculosis growth (absorbance);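 0% = vehicle and 100% = reference antibiotic; read after six days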
* = called active by the depositor; ? = inconclusive; . = not tested or not shown.

SMILES	BJeLR lethal	PrP UTR inh	Mtb hypoxia inh	Mtb hypoxia inh growth	RN4220 kill	ugtP null kill	Bead autofluor
COC(=O)C(Cc1ccccc1)NC(=O)CC(C)CC(=O)Nc1ccc(OC)cc1OC (stereo unspecified)	-14	-5	-1	0	2.9	3	3851
Cc1cccc(C(=O)N2CCN(Cc3nc4sc5c(c4c(=O)[nH]3)CCCC5)CC2)c1	-6	-22	-3	7	0.6	9	3607
O=C(N1CCc2[nH]c3ccccc3c2C1)C(F)(F)F	-1	-21	-4	-1	-0.6	-3	2941
COc1ccc(NC(=O)CC2SC(N3CCOCC3)=NC2=O)cc1OC (stereo unspecified)	.	-7	-2	1	-0.9	1	3530
COc1cccc2cc(C(=O)NCc3ccco3)c(=Nc3ccc(C(=O)O)cc3)oc12	-12	-47	3	8	19	5	9157
COc1ccc(NC(=O)CSc2ccc3c(c2)OCCO3)cc1	.	-12	15	6	-0.4	1	2954
CN1CCC(N(C)C(=O)c2ccc(Cl)c(S(=O)(=O)N3CCCCC3)c2)CC1	.	-5	6	0	-1.6	2	4183
CCOc1c2ccc(C(=O)NCc3ccc4c(c3)OCO4)cc2nn1CCOC	-2	-26	3	2	2.9	1	3974
COc1ccc(CC(=O)OCC(=O)NCc2ccc(F)cc2)cc1	.	-23	13	1	1.9	10	2848
Cc1ccccc1NS(=O)(=O)c1cc(S(C)(=O)=O)ccc1C	2	-41	3	12	5.2	9	2553
CCCCCCC(=O)Oc1cccc(N2C(=O)C3CCCCC3C2=O)c1 (stereo unspecified)	0	-22	15	9	0.4	-1	4613
CCN(CC)c1ccc(/C=C2\NC(=O)NC2=O)cc1	13	-28	.	.	.	.	2661
O=C(COC(=O)c1cccc(NS(=O)(=O)c2ccc(F)c(F)c2)c1)NC(=O)NC1CCCCC1	-2	-15	2	11	3.6	-17	2144
CN(CC(=O)Nc1ccccc1C(F)(F)F)C(=O)CSc1nnnn1C	3	-28	9	-1	3.0	6	3491
Cc1ccc(S(=O)(=O)Nc2nc3ccccc3nc2NCC2CCCO2)cc1C (stereo unspecified)	-3	-9	-1	1	10.0	5	4530
COc1ccccc1CN1CC(C(=O)NCc2ccc(SC)cc2)CCC1=O (stereo unspecified)	-4	-18	3	-1	-1.3	-2	6461
COc1ccc(-c2cc(C(=O)Nc3cc(Cl)ccc3O)no2)cc1	8	-44	3	6	3.5	-7	3974
CC(C)n1cc2c(N)ncnc2n1	.	-6	9	15	2.3	3	3496
CCn1c(=O)n(CC(=O)NC2CCCC(C)C2C)c(=O)c2ccccc21 (stereo unspecified)	7	-13	.	.	-5.3	-3	2322
Nc1ccccc1C(=O)OCC(=O)Nc1ccc(Br)cc1F	-6	-28	3	4	3.7	-3	10093
N#Cc1ccccc1OCc1nnc(-c2ccccc2Br)o1	-5	-81	1	0	5.8	5	4084
CS(=O)(=O)N(CC(=O)N1CCOCC1)c1cc(C(F)(F)F)ccc1Cl	-6	-8	-7	-6	2.6	-2	3721
Cc1ccc(S(=O)(=O)N(CC(=O)Nc2ccc(Cl)cc2)C(=O)N2CCN(C)CC2)cc1	-3	5	2	4	2.9	2	5729
COc1ccc(C(=O)NCCS(=O)(=O)N(C)Cc2ccccc2)cc1	2	-37	1	3	-0.4	6	5613
COc1ccccc1CN1CCN(Cc2nc(-c3ccccc3)no2)CC1	5	-21	7	2	6.6	11	3978
COc1ccc(S(=O)(=O)N2CCN(C)CC2)cc1NC(=O)c1ccccc1C	4	-23	6	2	1.8	13	3681
CCC(=O)Nc1ccc2c(c1)nc(CCN1CCN(C)CC1)n2C	1	-5	-5	3	3.2	-3	9649
Cc1ccc(NC(=O)CCCCCN2C(=O)[C@@H]3Cc4ccccc4CN3C2=O)c(C)c1	6	-22	0	3	2.2	4	5850
O=S(=O)(c1cc(Cl)c(Cl)cc1Cl)N1CCN2CCCC2C1 (stereo unspecified)	3	-21	-3	6	-3.6	-3	5228
O=C(N[C@@H](Cc1ccccc1)C(=O)OCc1ccccc1)c1nc[nH]c1C(=O)N1CCc2ccccc2C1	-5	-9	.	.	.	.	2743
Cc1sc2nc(SCC(=O)N(C)c3ccccc3)n(C)c(=O)c2c1C	0	-12	-3	-1	5.3	5	?
COC(=O)c1sccc1Oc1ccc(Cl)cc1N1C(=O)CCC1=O	-12	-21	17	2	2.4	5	6310
Cc1ccc(NC(=O)c2ccc(OCc3c(C)noc3C)cc2)c(C)c1	.	-6	13	5	2.6	2	3608
Cc1cc(C(=O)N2CCCC(CCC(=O)N3CCN(c4ccccn4)CC3)C2)c(C)o1 (stereo unspecified)	-2	-39	6	14	7.4	2	3752
CCN(CC)CCCNC(CC(=O)Nc1cccc([N+](=O)[O-])c1)C(=O)O (stereo unspecified)	2	-4	10	9	6.0	7	10215
COc1ccc(-n2ncc3c(SCC(=O)N4CCN(c5ccccc5OC)CC4)ncnc32)cc1	1	64*	12	12	5.3	-13	7545
Cc1nn(-c2ccccc2)c(Cl)c1CN(C(=O)CCl)c1cccc2ccccc12	5	-18	16	7	-1.5	15	2516
COc1ccc(Cl)cc1-c1n[nH]c(=S)o1	1	-20	.	.	9.9	-2	4651
O=C(O)CCC(=O)NNC(=O)c1cccc(Br)c1	-3	-11	3	-6	-0.8	-4	2110
COc1ccc(CC(=O)OCC(=O)NC2CC2)cc1	.	-2	2	1	3.1	4	3908
CC(=O)Nc1ccc(S(=O)(=O)NCc2ccc(C(=O)NC(C)c3ccccc3)cc2)cc1 (stereo unspecified)	0	-25	11	11	2.6	7	13293
CC1(C)Oc2ccc3ccc(=O)oc3c2/C(=C/Nc2cccc(O)c2)C1=O	5	-14	-9	7	0.0	-31	3746
CCc1ccc(N2C(=O)NC(=O)/C(=C\C=C\c3ccco3)C2=O)cc1	37	-10	-2	3	5.2	-2	5813
Cc1cccc(CCN2C(Nc3ccccc3)=NCC2CC(C)C)c1 (stereo unspecified)	.	.	0	15	9.0	2	.
CCOc1ccc(NC(=O)Cn2nnc(-c3ccccc3NC(=O)CC)n2)cc1	10	-23	11	8	2.6	-2	4511

Filtered by structure, the entries above containing bromine.
SMILES	BJeLR lethal	PrP UTR inh	Mtb hypoxia inh	Mtb hypoxia inh growth	RN4220 kill	ugtP null kill	Bead autofluor
Nc1ccccc1C(=O)OCC(=O)Nc1ccc(Br)cc1F	-6	-28	3	4	3.7	-3	10093
N#Cc1ccccc1OCc1nnc(-c2ccccc2Br)o1	-5	-81	1	0	5.8	5	4084
O=C(O)CCC(=O)NNC(=O)c1cccc(Br)c1	-3	-11	3	-6	-0.8	-4	2110

Following part.
SMILES	BJeLR lethal	PrP UTR inh	Mtb hypoxia inh	Mtb hypoxia inh growth	RN4220 kill	ugtP null kill	Bead autofluor
COCCNC(=O)C(=O)N/N=C(\C)CC(=O)Nc1cccnc1	2	-21	.	.	.	.	3415
Cc1cc(C)nc(NC(N)=NC(C)c2ccccc2)n1 (stereo unspecified)	9	.	24	-3	6.5	94*	.
COc1ccc(CC(=O)OCc2nnc(-c3ccccc3)o2)cc1	-5	-19	12	12	4.7	15	4349
Cc1ccc(CNC(=O)C2CCCN2C(=O)NCc2ccccc2)cc1 (stereo unspecified)	-2	-7	4	4	6.3	5	4116
CC(=NNc1nc2ccc(Cl)cc2o1)c1ccccc1	.	.	3	13	-3.2	1	.
COc1ccc(CCN(C)C(=O)C2CC(=O)N(Cc3ccc(C)cc3)C2)cc1OC (stereo unspecified)	.	-11	3	5	4.6	-2	3020
CCCS(=O)(=O)N1CCN(C(=O)COc2ccccc2)CC1	-5	-25	-2	-2	2.5	4	.
O=C(NCc1ccco1)C(c1ccco1)N(CCc1ccccc1)C(=O)Cn1nnc2ccccc21 (stereo unspecified)	-2	-11	.	.	-1.1	-2	2820
COc1ccc(C(=O)C(CCCCC(CN(C)C)C(=O)c2ccc(OC)cc2)CN(C)C)cc1 (stereo unspecified)	9	-16	7	5	-14	-4	3331
COc1ccc(NC(=O)CN2C(=O)COc3ccc(C)cc32)c(OC)c1	-11	-21	9	1	5.4	7	3360
Clc1ccccc1-c1nnc(-c2cccs2)o1	-1	-109	19	9	7.6	0	4422
O=C(Cn1cnc2c(NCc3ccccc3)ncnc21)NCC1CCCO1 (stereo unspecified)	.	6	6	12	4.8	-1	2964
CCOc1cc(C)c(S(=O)(=O)NC2CC(C)(C)NC(C)(C)C2)cc1C	8	0	13	9	3.9	1	3482
Cc1ccc2c(c1)N(CCC(=O)NCCCN1CCCC1)C(=O)CO2	-4	-16	-1	3	5.3	-1	5422
Cc1cc(C(=O)NC(C)CCc2ccccc2)ccc1[N+](=O)[O-] (stereo unspecified)	0	-31	12	9	-1.4	7	3254

Another view of three compounds above.
Compound,BJeLR lethal,PrP UTR inh,Mtb hypoxia inh,Mtb hypoxia inh growth,RN4220 kill,ugtP null kill,Bead autofluor
COc1ccc(NC(=O)CN2C(=O)COc3ccc(C)cc32)c(OC)c1,-11,-21,9,1,5.4,7,3360
COc1ccc(CC(=O)OCc2nnc(-c3ccccc3)o2)cc1,-5,-19,12,12,4.7,15,4349
COc1ccc(C(=O)C(CCCCC(CN(C)C)C(=O)c2ccc(OC)cc2)CN(C)C)cc1 (stereo unspecified),9,-16,7,5,-14,-4,3331

Two compounds picked at random from those above:
SMILES	BJeLR lethal	PrP UTR inh	Mtb hypoxia inh	Mtb hypoxia inh growth	RN4220 kill	ugtP null kill	Bead autofluor
Cc1ccc(CNC(=O)C2CCCN2C(=O)NCc2ccccc2)cc1 (stereo unspecified)	-2	-7	4	4	6.3	5	4116
CCN(CC)CCCNC(CC(=O)Nc1cccc([N+](=O)[O-])c1)C(=O)O (stereo unspecified)	2	-4	10	9	6.0	7	10215

The listing continues:
SMILES	BJeLR lethal	PrP UTR inh	Mtb hypoxia inh	Mtb hypoxia inh growth	RN4220 kill	ugtP null kill	Bead autofluor
O=C(CN1C(=O)NC2(CCCC2)C1=O)N1CCN(C(=O)c2ccco2)CC1	-2	-19	9	5	4.5	6	19470*
O=C(O)c1ccc(NC(=O)N2C[C@H]3C[C@@H](C2)c2cccc(=O)n2C3)cc1	-2	-18	.	.	1.4	-8	5662
CCOCc1c(C(=O)N2CCN(CCOc3ccc(Cl)cc3)CC2)oc2ccccc12	.	-7	7	6	-0.3	1	6602
COc1cccc(NC(=O)CCNS(=O)(=O)c2ccc(Br)s2)c1	3	-16	1	2	0.6	-3	3994
O=C(c1ccc(CN2CCc3ccccc3C2)cc1)N1CCc2ccccc2C1	-5	0	.	.	-5.3	-2	4071
CNCC(=O)Nc1ccc(Cl)c(C(F)(F)F)c1	13	0	17	3	6.4	-1	3311
Cc1cc(NS(=O)(=O)c2ccc(NC(=O)c3c(F)c(F)c(F)c(F)c3F)cc2)nc(C)n1	0	-8	16	15	3.1	9	4974
COCCN(C(=O)c1ccco1)c1nnc(-c2ccc(F)cc2)s1	8	-24	6	6	3.7	7	4575
COc1ccccc1N1CCN(CCN2C(=O)C3CCCN3C2=O)CC1 (stereo unspecified)	9	-2	4	2	-0.6	9	3603
COc1ccccc1CCC(=O)N(CCC1=CCCCC1)c1c(N)n(Cc2ccccc2)c(=O)[nH]c1=O	-7	-6	7	0	1.3	3	4471
O=C(Nc1ccc(F)cc1)NC1CCCCC1	-1	-39	2	10	3.7	14	7389
Cc1ccc(S(=O)(=O)N2CCCCC2CCNC(=O)C(=O)NC2CCCC2)cc1 (stereo unspecified)	0	2	-4	-1	-1.4	5	6017
O=C(c1ccccc1)N1CCN(S(=O)(=O)c2ccccc2)CC1	-15	-24	-2	-10	0.7	10	3982
COc1ccc(C(=S)Nc2ccc(C)cc2)cc1	-2	-81	.	.	-1.1	-1	2629
O=S1CCC(=NO)c2ccccc21 (stereo unspecified)	.	.	2	-6	6.2	10	.
COc1ccc(C=N/N=C2/NC(=O)C(CC(=O)NC(C)C)S2)cc1 (stereo unspecified)	.	.	4	-2	4.0	3	.
CCOc1ccc(C(=O)NC(C(=O)NCC2CCCO2)C(C)C)cc1 (stereo unspecified)	1	-35	-6	-4	2.8	7	4257
COc1ccc(NC(=O)c2ccccc2NS(=O)(=O)c2ccc(C)cc2)c([N+](=O)[O-])c1	-10	-13	.	.	.	.	2466
Cc1cc2oc(=O)cc(CN3CCN(Cc4ccc5c(c4)OCO5)CC3)c2cc1C	7	-15	15	9	0.6	8	2271
CC(=O)Nc1ccc(NC(=O)c2c(-c3ccccc3Cl)noc2C)c(C)c1	6	-10	7	4	2.6	7	5657
COc1cc(C2c3sc(=O)[nH]c3SC3C(=O)N(c4ccc(Br)cc4)C(=O)C32)ccc1O (stereo unspecified)	-2	-16	13	8	9.5	7	3715
COc1ccccc1C(=O)Nc1cccnc1	11	-16	0	-2	7.1	5	4890
